eIF4H inh = inhibitors of RNA binding by human eIF4H | Q15056 | eIF4H fluorescence polarization binding assay | inhibition, % at 35 µM | 290,000 compounds, 0.94% hits;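 active = 50% or more with normal probe brightness, or confirmed in later tests; inconclusive = above 50% with abnormal brightness, or retests that disagree; inactive = below 50% or failed in later tests; about a fifth of its hits are not listed in these tables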;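 note: calls also rest on retests at 20 µM and on dose response follow-up; 0% = protein and probe with vehicle and 100% = probe without protein; strong numbers were not always called active; many hits fall short of the cut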
Env fusion inh = blocks HIV Env-driven cell-cell fusion | HeLa-JRFL Env/CEM21 cell fusion, luciferase | inhibition, % at 12.3 µM | 360,000 compounds, 1.1% hits;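 active = mean replicate inhibition score of at least 50 and every replicate individually at or above 50; inconclusive = only one of the two criteria met; inactive = mean below 50 and not all replicates reaching 50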;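 note: 0% = plate neutral controls and 100% = maraviroc near 300 nM; one replicate is shown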
MT1-MMP act inh = inhibitors of human MT1-MMP activation. AID 651647. 360,000 compounds, 0.061% hits. HT1080 RFP-PRO-GFP cells, GFP/RFP ratio fluorescence, overnight; percent of plate control window, DMSO zero. P50281. GFP/RFP ratio change, % at 20 µM;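 active = GFP/RFP ratio change of at least 30% with cell ATP level not reduced by more than half and red fluorescence within 50% of control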; note: strong numbers were not always called active
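Test system: HT1080 RFP-PRO-GFP cells; Benchmarks: DMSO and RFP-L50D-GFP cell wells; Timing: cells overnight before dosing, compound overnight, 37 °C, 5% CO2; Compound: one 20 µM compound dose with 1% DMSO; Read-out: GFP/RFP fluorescence ratio.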
Rce1 inh = blocks yeast Ras-converting enzyme | Q03530 | yeast membranes, quenched prenylated peptide cleavage fluorescence | calls only | 290,000 compounds, 0.27% hits | AID 2563;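 active = fall in fluorescence gain of 50% or more versus controls, with final raw signal at or below 3038400; inconclusive = same 50% fall but final raw signal above 3038400; inactive = fall in fluorescence gain under 50%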;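 note: plate controls were neutral control wells for no effect and wells lacking membranes for full effect; tested at 10 µM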
UUG fidelity = yeast start codon fidelity modulation; S. cerevisiae UUG-firefly luciferase reporter, luminescence/redox ratio; activity score, % at 18.7 µM; 350,000 compounds, 0.13% hits; AID 602363;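 active = replicate mean at a twofold rise or more, about +100% in these data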;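 note: firefly luciferase made from a UUG start codon reports start codon fidelity; reporter light over untreated wells divided by growth signal over untreated wells; some hits fall short of that in this replicate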
PABP polyA inh = blocks human PABP binding to poly(A) RNA. AID 2014. 290,000 compounds, 1% hits. P11940. inhibition, % at 35 µM. fluorescence polarization;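 active = 50% or more with normal probe brightness, or confirmed in later tests; inconclusive = above 50% with abnormal brightness, or retests that disagree; inactive = below 50% or failed in later tests; about a fifth of its hits are not listed in these tables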;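 note: calls also rest on retests at 20 µM and on dose response follow-up; controls were probe without protein and protein plus probe with vehicle; some compounds called inactive have numbers as strong as hits; many hits fall short of the cut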
Target sequence (P11940 whole entry, looked up): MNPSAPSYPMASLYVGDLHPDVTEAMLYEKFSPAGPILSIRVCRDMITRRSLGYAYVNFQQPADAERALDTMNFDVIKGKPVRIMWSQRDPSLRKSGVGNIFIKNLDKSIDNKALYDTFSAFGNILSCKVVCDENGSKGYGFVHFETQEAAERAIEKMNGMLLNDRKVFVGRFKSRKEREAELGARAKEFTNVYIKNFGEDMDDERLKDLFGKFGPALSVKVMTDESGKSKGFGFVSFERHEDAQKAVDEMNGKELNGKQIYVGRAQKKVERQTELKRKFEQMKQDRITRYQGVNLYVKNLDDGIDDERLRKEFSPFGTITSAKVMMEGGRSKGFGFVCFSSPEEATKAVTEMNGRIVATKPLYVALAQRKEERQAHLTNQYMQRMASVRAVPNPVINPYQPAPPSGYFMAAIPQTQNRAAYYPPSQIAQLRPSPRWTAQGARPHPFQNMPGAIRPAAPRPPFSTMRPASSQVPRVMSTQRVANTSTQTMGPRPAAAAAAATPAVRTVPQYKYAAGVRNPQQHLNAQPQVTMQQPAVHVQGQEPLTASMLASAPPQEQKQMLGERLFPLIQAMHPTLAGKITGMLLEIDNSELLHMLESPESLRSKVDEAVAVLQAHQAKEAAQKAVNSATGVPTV
CSC inhib = blocks cancer stem cells; cancer stem cell-like cells viability, luminescence; inhibition, % at 7.5 µM; 300,000 compounds, 1.1% hits; AID 2717;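 active = mean at 75% or more and at least half the replicates too; inconclusive = mean and replicates disagree; tested in HMLE shEcad cells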;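 note: 0% = median of negative and 100% = median of positive control wells; the first replicate is given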
eIF4H inh retest = recorded beside eIF4H inh, whose call it bears; inhibition, %; compound at 20 µM; confirmation average;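 mean of two retest wells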
PABP polyA inh retest = also measured in PABP polyA inh; calls as there; inhibition, %; compound at 20 µM; confirmation repeats;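 mean of two retest wells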
MT1-MMP act inh RFP = also measured in MT1-MMP act inh; calls as there; RFP signal change, %; measured here: RFP expression control read;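 0 = vehicle wells; hits needed this value within 50% of zero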
An asterisk follows results filed as active; i = inactive; ? = inconclusive; / = not tested or not shown. Only part of the results is shown, so the mix of outcomes need not match the whole.

SMILES	eIF4H inh	Env fusion inh	MT1-MMP act inh	MT1-MMP act inh RFP	Rce1 inh	UUG fidelity	PABP polyA inh	CSC inhib	others
CCCCOc1ccc(N(CC(=O)NCC2CCCO2)C(=O)CCC(=O)Nc2cc(C)ccn2)cc1 (stereo not given)	0	-61	4	0	i	18	56	/	eIF4H inh retest=13;PABP polyA inh retest=19
NC1=NC(=O)/C(=C\c2ccsc2)S1	-4	-7	0	0	i	/	-6	-2
Cc1cccc(N(C)S(=O)(=O)c2ccc(-c3cnc(C4CC4)o3)cc2)c1	-8	-119	11	-7	i	-19	3	78*
CCN(CC(=O)Nc1ccc(NC(C)=O)cc1)C(=O)c1sc2nc3n(c(=O)c2c1C)CCC3	/	3	0	0	/	-1	/	-14
CCOc1ccc(OCC)c(NC(=O)C2CCN(S(=O)(=O)c3ccc4c(c3)CC(C)N4C(C)=O)CC2)c1 (stereo not given)	-5	4	-1	-3	i	1	2	2
CCOC(=O)N1CCN(C(=O)c2ccc3c(c2)N(CC)CCS3)CC1	1	-12	0	-1	i	25	5	1
COc1ccccc1Nc1ccc(N)cc1	-1	5	12	9	i	/	2	14
CC(=O)Nc1ccc(NC(=O)C(C)OC(=O)/C(C#N)=C/c2ccc(N(C)C)cc2)cc1 (stereo not given)	/	-26	-49	-1	i	-27	/	-1
CCNc1c(NC(=O)c2ccc3c(c2)OCO3)c(=O)oc2ccccc12	4	7	3	4	i	-5	-2	-3
O=C(Nc1cccc(C(=O)NC2CC2)c1)c1ccccc1	/	15	1	4	/	-13	/	/
Cc1cc(C)c(C)c(S(=O)(=O)Nc2ccccc2C(=O)NN2CCOCC2)c1C	/	9	-4	-3	/	0	/	-12
O=C1C2(c3ccccc3)CN(CCO)CC1(c1ccccc1)CN(CCO)C2	2	/	1	3	i	-43	-2	0
C=CCn1c(SCC(=O)Nc2sc(C)c(C)c2C(=O)OCC)nnc1-c1sc(N)nc1C	1	/	0	-6	i	-15	-12	0
CC1CCCC(C)N1C(=O)CSc1nnc(C2CCCCC2)o1 (stereo not given)	5	25	-1	0	i	-7	-12	41
CC(OC(=O)c1ccc(NC(=O)CC#N)cc1)C(=O)Nc1ccc(S(=O)(=O)N2CCCC2)cc1 (stereo not given)	/	4	0	6	/	-4	/	/

Looked up by compound from the entries so far:
SMILES	eIF4H inh	Env fusion inh	MT1-MMP act inh	MT1-MMP act inh RFP	Rce1 inh	UUG fidelity	PABP polyA inh	CSC inhib	others
CC(OC(=O)c1ccc(NC(=O)CC#N)cc1)C(=O)Nc1ccc(S(=O)(=O)N2CCCC2)cc1 (stereo not given)	/	4	0	6	/	-4	/	/
O=C1C2(c3ccccc3)CN(CCO)CC1(c1ccccc1)CN(CCO)C2	2	/	1	3	i	-43	-2	0
CCCCOc1ccc(N(CC(=O)NCC2CCCO2)C(=O)CCC(=O)Nc2cc(C)ccn2)cc1 (stereo not given)	0	-61	4	0	i	18	56	/	eIF4H inh retest=13;PABP polyA inh retest=19

Continuation.
SMILES	eIF4H inh	Env fusion inh	MT1-MMP act inh	MT1-MMP act inh RFP	Rce1 inh	UUG fidelity	PABP polyA inh	CSC inhib	others
COc1cccc(-n2c(SCC(N)=O)nnc2-c2ccco2)c1	0	-3	-1	2	i	1	-2	-7
O=C1C=CC(=O)C(C2=C3C(=O)N(CCc4ccccc4)CC(=O)N3CCC2)=C1	75	8	/	/	i	1	25	29	eIF4H inh retest=7;PABP polyA inh retest=-2
CCOC(=O)N1CCN(C(=O)c2cc3c(s2)-c2ccc(Cl)cc2S(=O)(=O)C3)CC1	1	13	-4	-3	i	/	14	3
CNC(=O)COc1coc(CN2CCN(c3ccccc3)CC2)cc1=O	-4	1	1	4	i	-18	-13	-11
CC1=C/C(=C\c2ccc3c(c2)OCO3)C(=O)S1	5	-32	0	0	i	-25	12	50
CCN(CC)c1ccc(NC(=O)c2cccc(C)c2)cc1S(=O)(=O)Nc1ccccc1OC	2	27	6	-5	i	/	4	0
COc1ccc2[nH]c(=O)c(-c3nnn(-c4ccc(F)cc4)n3)cc2c1	/	-85	-1	5	i	-6	/	10
O=C1CSC(c2ccccc2F)N1c1cc(Cl)ccc1O (stereo not given)	-12	-68	3	2	i	10	-5	/
CN1C2C=C3C(C#N)=C(N)C(C#N)(C#N)[C@H](c4c(F)cccc4F)[C@H]3C1CC2 (stereo not given in full)	53	/	-35	-1	i	-1	31	-12	eIF4H inh retest=35;PABP polyA inh retest=20
Cc1cc(C(=O)N2CCC2(C)C(=O)O)nn1C(C)(C)C (stereo not given)	/	21	-1	4	/	-12	/	/
c1ccc(NC2=NCCN2CCCC2CCCCC2)cc1	/	-25	0	-1	/	-17	/	21
O=C(Cc1ccc(Cl)cc1)NNC(=S)NC(=O)c1cccnc1	21	-19	4	6	i	/	-1	10
C[C@H](O)[C@@H]1C(=O)N2CCc3ccc(-c4cccc(F)c4)cc3[C@@H]2C[C@@H]1N(C)S(=O)(=O)c1ccccc1	/	-186	-3	-7	/	-6	/	/
CSc1ccccc1NC(=O)CN(C)CC(=O)Nc1ccc(Cl)cc1[N+](=O)[O-]	-1	5	1	2	i	/	17	1
COc1ccc(C)cc1S(=O)(=O)N1CCCC(N2CCN(c3ccccc3)CC2)C1 (stereo not given)	/	10	-1	-11	/	-7	/	/
COc1ccc(CN2C(=O)CC(Cc3cc(C)cc(C)c3)C2=O)cc1OC (stereo not given)	-12	25	0	0	i	/	-4	-1
O=C1c2ccccc2-c2ccccc2NC1O (stereo not given)	/	1	3	1	/	-9	/	/
Cc1ccc2nc(SCC(=O)c3ccc(Cl)s3)[nH]c2c1	-1	/	-15	5	i	-23	-7	/
Cc1ccc(C(=O)CCC(=O)NC2CCCC(C)C2C)cc1 (stereo not given)	-11	-8	-2	2	i	7	3	0
COC(=O)c1[nH]c2c(c1C)C(=O)CC(c1ccc(OC)c(OC)c1)C2 (stereo not given)	-4	-15	3	-9	i	-11	-7	5
O=C(CSc1nnc2ccccn12)Nc1ccccc1Cl	/	-5	2	2	/	-22	/	2
CC(=O)Nc1ccc(S(=O)(=O)NCCSCc2ccc(Cl)cc2Cl)cc1	-2	?	4	-10	i	-18	-2	34
COc1ccc(CCNC(=O)Nc2cc(F)c(F)cc2Cl)cc1OC	-9	5	1	0	i	3	-7	8
CC(Nc1ccc(Br)cc1)C(=O)N/N=C/c1ccccc1OCc1ccccc1 (stereo not given)	-6	-37	/	/	i	-8	-5	-14
CCn1ncc(Br)c1C(=O)NC(C)c1ccccc1 (stereo not given)	-2	27	-1	3	i	-11	-7	-7
COc1ccc(CCN(Cc2ccccn2)C(=S)Nc2cccc(C)c2)cc1OC	-5	-9	1	3	i	-21	-11	-4
CC(C)CC(COCc1ccc([N+](=O)[O-])cc1)N1CCN(C(=O)c2ccc(C(F)(F)F)cc2)CCC1=O (stereo not given)	5	36	1	-11	i	-8	-5	1
N#CC1=C(N)Oc2n[nH]c(-c3ccccc3)c2C1c1cccnc1 (stereo not given)	0	-20	-1	-7	i	-25	-1	-8
CC1(C)C(CC2OCC(CN3CCCCC3)O2)[C@H]2CC[C@@H]1C2 (stereo not given in full)	-6	-19	-2	4	i	/	-3	15
Cc1ccc(C(=O)NC(C(=O)OCc2cn3cc(Cl)ccc3n2)C(C)C)cc1 (stereo not given)	/	-3	-3	-2	/	-5	/	-16
Cc1ccc(NC(=O)O/N=C/c2ccc(F)cc2)cc1	-8	-27	-4	0	i	-11	-6	2
CC(C)(C)c1cc(NCc2ccccn2)n2ncc(-c3ccccc3)c2n1	6	10	3	-4	i	/	1	78*
COCCCNCCOCCOc1ccc(Cl)cc1Br	5	9	0	5	i	/	12	35
CC1CCN(C(=O)c2[nH]cnc2C(=O)N[C@@H](CCCCNC(=O)OC(C)(C)C)C(=O)OC(C)(C)C)CC1	8	-18	7	2	i	12	1	25
N#Cc1ccc(C(=O)NCC(c2ccco2)N2CCCC2)cc1 (stereo not given)	-5	/	5	7	i	-6	0	-4
Cc1ccccc1SCC(=O)OCC(=O)Nc1sccc1C(N)=O	0	13	1	3	i	/	3	-9
Cc1csc(NC(=O)CSc2nc(C)nc3c2c(=O)n(C)c(=O)n3C)n1	20	1	-3	-12	i	-8	3	-15
CCC(CC)c1nnc(NC(=O)c2nn(C)c(=O)c3ccccc23)s1	-5	/	-1	-3	i	/	-1	/
CCOC(=S)N/C(=N\S(=O)(=O)c1ccccc1)c1ccccc1	3	/	-2	-1	i	-10	12	-10
Cc1ccc(SCc2nc(N)nc(Nc3ccccc3C)n2)cc1C	-2	-2	3	1	i	/	-2	-9
Cn1c(=O)c2ncn(CC(=O)NC3CCCCCC3)c2n(C)c1=O	-6	/	8	-3	i	-9	80*	4
CCCNC(=O)c1c(N)n(-c2cccc(OC)c2)c2nc3ccccc3nc12	-1	15	-24	-2	i	-12	-1	29
COC(=O)c1cc(C)ccc1OCc1ccc([N+](=O)[O-])cc1	-13	-29	4	-1	i	0	6	-11
COc1cccc(N2C(=O)C3CCCN3C2c2ccc(N(C)C)cc2)c1 (stereo not given)	11	-20	7	4	i	2	-3	7
O=C(Cc1ccccc1)NC(NC(=S)Nc1cc(Cl)ccc1Cl)C(Cl)(Cl)Cl (stereo not given)	3	-354	-1	1	i	-12	4	-18
Cc1cc(CNC(=O)c2ccc3oc(C(C)C)nc3c2)nn1C	4	-5	-1	3	i	-19	-6	-11
Cc1cccc(N(CC(=O)NC2CCCC2)C(=O)CCC(=O)Nc2cc(C)on2)c1	5	1	6	5	i	-8	11	/
COC(=O)[C@H](CC(C)C)NCc1cccc(CN[C@@H](CC(C)C)C(=O)OC)c1	0	9	1	-5	i	-8	3	44
CC1(C)CC(=O)C2=C(C1)OC(N)=C(C#N)C2Cc1ccccc1 (stereo not given)	8	/	0	3	i	-6	6	-2
Cc1c(NC(=O)C(C)OC(=O)CNC(=O)c2ccccc2)c(=O)n(-c2ccccc2)n1C (stereo not given)	5	-11	1	-4	i	-8	-8	0
CC1CCC(C(C)C)C(OC(=O)COC(=O)c2ccc(=O)[nH]c2)C1 (stereo not given)	-9	-23	-4	-9	i	-16	2	-11
CC12CC3CC(C)(C1)CC(C(O)CN1CCOCC1)(C3)C2 (stereo not given)	-7	18	-1	5	i	-10	2	-5
COc1ccc(C(NC(=O)C2CCN(CCOc3ccc(Cl)cc3Cl)CC2)c2cccs2)cc1 (stereo not given)	/	5	3	-5	/	15	/	/
O=C(COc1cccc(Br)c1)N/N=C1\CCSC1	4	-9	1	2	i	/	1	44
CC(C)CNC(=O)CSc1ccc(S(=O)(=O)N2CCN(C)CC2)cn1	/	/	-1	-6	/	-19	/	-11
Cc1ccc(N2C(=O)CC(N3CCN(c4ccc(F)cc4)CC3)C2=O)c(C)c1 (stereo not given)	-12	11	-1	2	/	-18	8	-9
Cc1oc2c(c1C(=O)Nc1cccc3ccccc13)CCCC2	2	/	-6	-5	i	-17	-8	13
CCOC(=O)N1CCC(NC(=O)c2ccc(Cl)cc2)CC1	-10	3	3	1	i	/	-11	-11
O=C(CCC1CCCCC1)Nc1ccccc1C(=O)N1CCOCC1	-7	13	2	1	i	/	-10	-2
COc1cc2[nH]c3c(N4CCC(C(N)=O)CC4)ncnc3c2cc1OC	-6	/	/	/	i	/	7	-13
COC(=O)C1CCN(C(=O)COC(=O)CSc2ccc(C(N)=O)cc2[N+](=O)[O-])CC1	/	2	0	3	i	15	/	-11
NS(=O)(=O)c1ccc(NC(=S)N2CCC(Cc3ccccc3)CC2)cc1	-2	7	1	-7	i	-19	-10	-23

Screening results: PubChem BioAssay, several laboratories
